# FGF22 binding – binders of human FGF22 protein, primary screen, FGF22 synaptogenesis inhibitor project, biophysical, thermal shift, single point. recombinant FGF22 thermal shift, SYPRO orange fluorescence; percent of sucrose octasulfate shift, DMSO zero. 340,000 compounds, 1.5% hits. AID 651658, 2012. calls only at 9.99 µM. Fibroblast growth factor 22 (Homo sapiens), Q9HCT0;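 active = melting point raised past a set limit in the mean and every replicate; three in four hits are not shown here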
# Target sequence (Q9HCT0 whole entry, looked up): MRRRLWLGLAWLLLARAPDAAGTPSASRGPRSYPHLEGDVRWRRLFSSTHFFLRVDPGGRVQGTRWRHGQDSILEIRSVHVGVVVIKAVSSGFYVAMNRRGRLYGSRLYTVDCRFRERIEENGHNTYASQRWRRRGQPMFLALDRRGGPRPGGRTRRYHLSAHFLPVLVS
# Calls only; i = inactive. The list is partial; count on the stated rates, not on these rows.
# The first five records, to show the layout:
mol | FGF22 binding
C[C@@H]1CN([C@H](C)CO)C(=O)c2cc(NC(=O)Nc3ccc4c(c3)OCO4)ccc2O[C@@H]1CN(C)Cc1ccc(C(F)(F)F)cc1 | i
CCC(=O)N1C[C@H](C)[C@H](OC)CN(C)C(=O)c2cc(NS(=O)(=O)CC)ccc2OC[C@H]1C | i
COCC(=O)N1[C@H](CO)[C@@H](c2ccccc2)[C@@H]1CN(C)C(=O)c1ccccc1 | i
COCC(=O)Nc1ccc2c(c1)C(=O)N(C)C[C@@H](OC)[C@H](C)CN(C(=O)c1ccccc1F)[C@H](C)CO2 | i
Cc1ccc(S(=O)(=O)Nc2cccc3c2O[C@@H](CN(C)S(=O)(=O)c2ccc(Cl)cc2)[C@H](C)CN([C@@H](C)CO)C3=O)cc1 | i

# The list itself, from the first entry:
mol | FGF22 binding
C[C@@H]1CN([C@H](C)CO)C(=O)c2cc(NC(=O)Nc3ccc4c(c3)OCO4)ccc2O[C@@H]1CN(C)Cc1ccc(C(F)(F)F)cc1 | i
CCC(=O)N1C[C@H](C)[C@H](OC)CN(C)C(=O)c2cc(NS(=O)(=O)CC)ccc2OC[C@H]1C | i
COCC(=O)N1[C@H](CO)[C@@H](c2ccccc2)[C@@H]1CN(C)C(=O)c1ccccc1 | i
COCC(=O)Nc1ccc2c(c1)C(=O)N(C)C[C@@H](OC)[C@H](C)CN(C(=O)c1ccccc1F)[C@H](C)CO2 | i
Cc1ccc(S(=O)(=O)Nc2cccc3c2O[C@@H](CN(C)S(=O)(=O)c2ccc(Cl)cc2)[C@H](C)CN([C@@H](C)CO)C3=O)cc1 | i
C[C@H](CO)N1C[C@H](C)[C@H](CN(C)S(=O)(=O)c2ccc(F)cc2)Oc2ncc(C#CC3(O)CCCC3)cc2C1=O | i
CCCC#Cc1ccc2c(c1)O[C@@H](CN(C)C(=O)C1CC1)[C@@H](C)CN([C@@H](C)CO)S2(=O)=O | i
CCCC(=O)N1CC2(C1)CN(C(=O)CC)[C@H](CO)c1c2c2ccc(OC)cc2n1C | i
O=C(C[C@H]1CC[C@@H]2[C@H](COC[C@H](O)CN2C(=O)Nc2ccc(C(F)(F)F)cc2)O1)NCC1CC1 | i
COc1ccc(-c2cnc3c(c2)C(=O)N([C@@H](C)CO)C[C@H](C)[C@@H](CN(C)Cc2ccc(C(=O)O)cc2)O3)cc1 | i

# Further entries:
mol | FGF22 binding
CC(=O)N1C[C@H]2[C@@H](c3ccccc31)[C@@H](CO)N2C(=O)c1ccc(F)cc1 | i
C[C@H](O)C#Cc1cnc2c(c1)C(=O)N([C@H](C)CO)C[C@H](C)[C@@H](CN(C)C(=O)c1ccccc1)O2 | i
C[C@H](CO)N1C[C@H](C)[C@H](CN(C)C(=O)Nc2ccc(C(F)(F)F)cc2)Oc2ccc(NS(=O)(=O)c3ccc(F)cc3)cc2C1=O | i
O=C(Nc1cccc(Cl)c1)N[C@H]1CC[C@@H](CCNC(=O)C2CC2)O[C@H]1CO | i
C[C@H]1CN([C@@H](C)CO)C(=O)c2cccc(N(C)C)c2O[C@@H]1CN(C)Cc1ccc(C(=O)Nc2ccccc2N)cc1 | i
CCCC#Cc1cnc2c(c1)C(=O)N([C@H](C)CO)C[C@H](C)[C@@H](CN(C)C(=O)Cc1ccccc1)O2 | i
O=C(NC1CCCCC1)N1CC2(C1)[C@@H](c1ccccc1)[C@@H](CO)N2S(=O)(=O)Cc1ccccc1 | i
CCCNC(=O)N1C[C@@H](C)[C@@H](OC)CN(C)C(=O)c2cc(NS(C)(=O)=O)ccc2OC[C@H]1C | i
C[C@H]1CN([C@@H](C)CO)C(=O)c2cc(Br)cnc2O[C@@H]1CN(C)CC1CCCC1 | i
C[C@@H]1CN([C@@H](C)CO)S(=O)(=O)c2ccc(-c3cccc(C#N)c3)cc2O[C@@H]1CN(C)C(=O)c1cccnc1 | i

# More records.
mol | FGF22 binding
CN1C(=O)c2cc(NC(=O)c3ccccc3)ccc2OC[C@@H]2O[C@@H](CC(=O)O)CC[C@@H]21 | i
CC=Cc1ccc2n(c1=O)C[C@@H]1[C@@H](CO)[C@H](C(=O)NCc3cccc(F)c3)[C@H]2N1S(C)(=O)=O (mixture of isomers) | i
COc1ccccc1S(=O)(=O)N(C)C[C@@H]1Oc2ncc(-c3ccc(C)cc3)cc2C(=O)N([C@@H](C)CO)C[C@H]1C | i
C=CC[C@H](O)c1ccc(O)c(F)c1 | i
CC(C)NC(=O)N(C)C[C@H]1Oc2c(NC(=O)Nc3ccccc3)cccc2C(=O)N([C@@H](C)CO)C[C@H]1C | i
C[C@@H]1CN([C@H](C)CO)C(=O)c2cccc(NS(=O)(=O)c3ccc(Cl)cc3)c2O[C@H]1CN(C)S(=O)(=O)c1ccc(Cl)cc1 | i
CC(C)C#Cc1cnc2c(c1)C(=O)N([C@@H](C)CO)C[C@@H](C)[C@H](CN(C)Cc1cncnc1)O2 | i
C[C@@H]1CN([C@H](C)CO)C(=O)c2cccc(NC(=O)NC3CCCCC3)c2O[C@H]1CN(C)CC1CCCCC1 | i
C[C@H]1CN([C@@H](C)CO)S(=O)(=O)c2ccc(-c3cncnc3)cc2O[C@@H]1CN(C)C | i
COc1ccc(NC(=O)N(C)C[C@H]2OCc3ccccc3-c3c(n(C)c4ccccc34)C(=O)N([C@H](C)CO)C[C@H]2C)c(OC)c1 | i

# New compounds follow
mol | FGF22 binding
C[C@H](CO)N1C[C@H](C)[C@H](CN(C)C(=O)NC2CCCCC2)Oc2ncc(C#Cc3ccccc3)cc2C1=O | i
COc1ccc(-c2ccc([C@H]3[C@H](CO)N4C(=O)CN(Cc5ccccc5)C[C@@H]34)cc2)cc1 | i
COc1ccc(S(=O)(=O)Nc2ccc3c(c2)C(=O)N([C@@H](C)CO)C[C@@H](C)[C@H](CN(C)Cc2ccc(C(=O)O)cc2)O3)cc1 | i
Cc1ccccc1S(=O)(=O)N[C@@H]1CC[C@H](CCn2cc(-c3ccc(F)cc3)nn2)O[C@H]1CO | i
O=S(=O)(c1ccc(F)cc1)N1CC[C@@H]2[C@H](CO)Nc3ccc(Br)cc3[C@@H]21 | i
COc1cccc(S(=O)(=O)Nc2ccc3c(c2)[C@H]2C[C@@H](CC(=O)NC4CCCCC4)O[C@H](CO)[C@H]2O3)c1 | i
COCC(=O)N(C)C[C@@H]1Oc2ncc(C#Cc3ccccc3OC)cc2C(=O)N([C@H](C)CO)C[C@H]1C | i
COc1ccc(S(=O)(=O)N(C)C[C@@H]2Oc3ccc(NS(=O)(=O)c4ccc(C)cc4)cc3CC(=O)N([C@H](C)CO)C[C@@H]2C)cc1 | i
C[C@@H]1CCCCO[C@H](CN(C)C(=O)c2ccccc2)[C@H](C)CN([C@H](C)CO)C(=O)c2cc(NC(=O)c3ccccc3)ccc2O1 | i
C[C@H](CO)N1C[C@H](C)[C@H](CN(C)S(=O)(=O)c2ccccc2)Oc2c(cccc2N(C)C)C1=O | i

# More compounds follow:
mol | FGF22 binding
Cc1ccccc1-c1ccc2c(c1)O[C@@H](CN(C)C)[C@@H](C)CN([C@@H](C)CO)S2(=O)=O | i
Cc1noc(C)c1NC(=O)Nc1ccc2c(c1)C(=O)N([C@@H](C)CO)C[C@@H](C)[C@@H](CN(C)S(=O)(=O)c1ccc(Cl)cc1)OCCCC[C@@H](C)O2 | i
C[C@@H]1CN([C@@H](C)CO)C(=O)c2cc(-c3ccc(C#N)cc3)cnc2O[C@H]1CN(C)Cc1cccnc1 | i
O=C(C[C@H]1CC[C@H](NC(=O)C2CC2)[C@@H](CO)O1)NC1CCC1 | i
C[C@@H]1CN([C@@H](C)CO)C(=O)c2cc(NC(=O)CCCN(C)C)ccc2O[C@@H]1CN(C)Cc1ccc(C(F)(F)F)cc1 | i
C[C@H](CO)N1C[C@H](C)[C@@H](CN(C)S(=O)(=O)c2ccc(F)cc2)Oc2ccc(NC(=O)C3CCCCC3)cc2CC1=O | i
CO[C@@H]1CN(C)C(=O)c2ccc(NS(=O)(=O)CC(F)(F)F)cc2OC[C@H](C)N(C)C[C@H]1C | i
C[C@@H]1CN([C@H](C)CO)C(=O)c2cc(NC(=O)Cc3ccccc3)ccc2O[C@@H](C)CCCCO[C@H]1CN(C)C(=O)C1CCCCC1 | i
C[C@@H]1CN([C@@H](C)CO)S(=O)(=O)c2ccc(C3=CCCC3)cc2O[C@@H]1CN(C)C(=O)C1CCC1 | i
CCCNC(=O)Nc1ccc2c(c1)OC[C@@H](C)N(S(C)(=O)=O)C[C@H](C)[C@H](OC)CN(C)C2=O | i

# Carrying on.
mol | FGF22 binding
CCC(=O)Nc1ccc2c(c1)C(=O)N(C)C[C@H](OC)[C@H](C)CN(CCc1ccccc1)[C@@H](C)CO2 | i
O=C(C[C@H]1C[C@@H]2c3cc(NC(=O)C4CCOCC4)ccc3O[C@@H]2[C@@H](CO)O1)NC1CCCC1 | i
C[C@H](CO)N1C[C@H](C)[C@@H](CN(C)Cc2ccc(C(=O)Nc3ccccc3N)cc2)Oc2ccc(NC(=O)C3CC3)cc2CC1=O | i
CCC(=O)Nc1ccc2c(c1)C(=O)N(C)[C@H]1CC[C@H](CC(=O)Nc3ccccc3OC)O[C@@H]1CO2 | i
Cc1noc(C)c1NC(=O)N(C)C[C@@H]1Oc2ccc(NC(=O)c3ccncc3)cc2C(=O)N([C@@H](C)CO)C[C@@H]1C | i
C[C@@H]1CCCCO[C@@H](CN(C)Cc2ccc(Cl)c(Cl)c2)[C@@H](C)CN([C@@H](C)CO)C(=O)c2cc(NC(=O)Nc3cccc4ccccc34)ccc2O1 | i
C[C@@H]1CN([C@H](C)CO)S(=O)(=O)c2ccc(C#CCN(C)C)cc2O[C@@H]1CN(C)C(=O)C1CCCCC1 | i
C[C@@H]1CN([C@@H](C)CO)C(=O)c2cc(NC(=O)Nc3cccc4ccccc34)ccc2O[C@@H](C)CCCCO[C@@H]1CN(C)Cc1ccncc1 | i
C[C@@H]1CCCCO[C@@H](CN(C)C)[C@@H](C)CN([C@H](C)CO)C(=O)c2cc(NC(=O)C3CCCCC3)ccc2O1 | i
CNC[C@@H]1Oc2ncc(-c3cccc(F)c3)cc2C(=O)N([C@@H](C)CO)C[C@@H]1C | i

# Next part:
Molecule | FGF22 binding
CO[C@@H]1CN(C)C(=O)c2ccc(NS(=O)(=O)c3ccccc3)cc2OC[C@@H](C)N(Cc2ccccn2)C[C@@H]1C | i
C[C@H]1CN([C@@H](C)CO)S(=O)(=O)c2ccc(C#CCN(C)C)cc2O[C@H]1CN(C)S(=O)(=O)c1cccc(F)c1 | i
COCC#Cc1cnc2c(c1)C(=O)N([C@H](C)CO)C[C@@H](C)[C@@H](CN(C)C(=O)c1ccc3c(c1)OCO3)O2 | i
C[C@H](CO)N1C[C@H](C)[C@H](CN(C)C(=O)Nc2ccc3c(c2)OCO3)Oc2ccc(NC(=O)Nc3ccc(F)cc3)cc2CC1=O | i
C[C@@H]1CN([C@H](C)CO)C(=O)c2cc(NS(=O)(=O)c3ccc(Cl)cc3)ccc2O[C@@H](C)CCCCO[C@@H]1CN(C)S(C)(=O)=O | i
CN(C)Cc1cn(CC[C@@H]2CC[C@@H](NS(=O)(=O)c3ccc(-c4ccccc4)cc3)[C@@H](CO)O2)nn1 | i
C[C@@H](NC(=O)[C@@H]1[C@@H](CO)[C@@H]2Cn3c(cccc3=O)[C@@H]2N1Cc1ccncc1)c1ccccc1 | i
CO[C@H]1CC[C@H]2CCN(C)C(=O)CCCN(C)C(=O)c3cccc(C#N)c3OC[C@H]1O2 | i
CCCNC(=O)C[C@H]1C[C@H]2c3cc(NC(=O)Nc4ccccc4)ccc3O[C@H]2[C@H](CO)O1 | i
C[C@H](CO)N1C[C@H](C)[C@@H](CN(C)Cc2ccc(C(=O)Nc3ccccc3N)cc2)Oc2c(NS(C)(=O)=O)cccc2C1=O | i
O=C(c1ccc2c(c1)OCO2)N1C[C@H]2[C@@H](c3ccccc31)[C@@H](CO)N2CC1CCCC1 | i
CC(C)NC(=O)N1C[C@@H]2[C@H](c3ccccc31)[C@@H](CO)N2C(=O)c1ccccn1 | i
CNC[C@@H]1Oc2ncc(-c3ccc(F)cc3)cc2C(=O)N([C@H](C)CO)C[C@@H]1C | i
C[C@@H]1CN([C@H](C)CO)S(=O)(=O)c2ccc(C#C[C@@H](C)O)cc2O[C@@H]1CN(C)C(=O)CC1CC1 | i
CO[C@H]1CN(C)C(=O)c2ccc(NC(C)=O)cc2OC[C@@H](C)N(Cc2cncnc2)C[C@H]1C | i
C[C@H](CO)N1C[C@H](C)[C@H](CN(C)S(=O)(=O)c2ccc(Cl)cc2)Oc2c(NC(=O)Nc3ccc4c(c3)OCO4)cccc2C1=O | i
CC(C)NC(=O)Nc1ccc2c(c1)C(=O)N([C@@H](C)CO)C[C@@H](C)[C@@H](CN(C)Cc1ccccc1)OCCCC[C@@H](C)O2 | i
CCCNC(=O)N1[C@H](CO)[C@H](c2ccccc2-c2ccccc2F)[C@@H]1C#N | i
COC(=O)C[C@@H]1C[C@@H]2c3cc(N)ccc3O[C@@H]2[C@H](CO)O1 | i
O=C(C[C@@H]1CC[C@@H]2[C@H](COC[C@@H](O)CN2Cc2ccc3c(c2)OCO3)O1)Nc1ccc(-c2ccccc2)cc1 | i
C[C@H]1CN([C@@H](C)CO)S(=O)(=O)c2ccc(-c3ccncc3)cc2O[C@@H]1CN(C)Cc1ccccn1 | i
C[C@@H]1CN([C@@H](C)CO)C(=O)Cc2cc(NS(C)(=O)=O)ccc2O[C@H]1CN(C)Cc1ccncc1 | i
C[C@H]1CN([C@@H](C)CO)C(=O)c2cc(NC(=O)Nc3ccc4c(c3)OCO4)ccc2O[C@H]1CN(C)S(C)(=O)=O | i

# Sorted by number of heavy atoms (lowest first): part of the list above
Molecule | FGF22 binding
COC(=O)C[C@@H]1C[C@@H]2c3cc(N)ccc3O[C@@H]2[C@H](CO)O1 | i
CO[C@H]1CN(C)C(=O)c2ccc(NC(C)=O)cc2OC[C@@H](C)N(Cc2cncnc2)C[C@H]1C | i
COCC#Cc1cnc2c(c1)C(=O)N([C@H](C)CO)C[C@@H](C)[C@@H](CN(C)C(=O)c1ccc3c(c1)OCO3)O2 | i
